A1_apoptosis_2: A1 inhibitors via caspase activation, primary screen, cell-based, luminescence, HTS, two replicates; caspase activation, % (no concentration beside the values); MEF A1-2A-BIM cells, caspase-Glo luminescence, 3 h; percent of clofoctol response, DMSO zero; 24,000 tested, under 10 active; in the data active means caspase activation above about 5.9%;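 further: wells of about 30 µL received 50 nL stock; the first replicate is given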
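Evaluation: Caspase-3/7 activity from luminescence increase | Assay system: A1-2A-BIM mouse embryonic fibroblasts | Quantity: 2500 MEF cells/well | Medium: RPMI-1640 plus 10% FBS | Detection: Caspase-Glo 3/7 luminescence, 1 h at room temperature | Dosing: 50 nL compound per well, pinned | Timing: Cells settled overnight, compound exposure 3 h at 37 °C, 5% CO2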
The depositor's hits bear a star.

SMILES A1_apoptosis_2
Cc1cccc(S(=O)(=O)N(C)C[C@@H]2OCc3cn(nn3)CCCC(=O)N([C@H](C)CO)C[C@@H]2C)c1 1.0
C[C@H]1CN([C@@H](C)CO)C(=O)c2cccc(NC(=O)c3cnccn3)c2O[C@@H]1CN(C)Cc1ccc(C(=O)Nc2ccccc2N)cc1 -0.3
C[C@@H]1CN([C@@H](C)CO)C(=O)c2cc(NC(=O)C3CC3)ccc2O[C@H]1CN(C)Cc1ccc2c(c1)OCO2 0.8
COc1ccc(S(=O)(=O)Nc2cccc3c2O[C@@H](CN(C)Cc2ccc(Oc4ccccc4)cc2)[C@@H](C)CN([C@H](C)CO)C3=O)cc1 1.1
CC(C)NC(=O)N(C)C[C@H]1OCc2cn(nn2)CCCC(=O)N([C@H](C)CO)C[C@@H]1C 0.4
Cc1noc(C)c1S(=O)(=O)N(C)C[C@H]1Oc2ccc(N(C)C)cc2CC(=O)N([C@H](C)CO)C[C@H]1C -0.1
C[C@H]1CCCCO[C@@H](CN(C)C(=O)CCCN(C)C)[C@@H](C)CN([C@@H](C)CO)C(=O)c2cc(NC(=O)Cc3ccccc3)ccc2O1 -0.7
C[C@@H]1CN([C@H](C)CO)C(=O)Cc2cc(NC(=O)C3CC3)ccc2O[C@@H]1CN(C)Cc1ccc(Cl)c(Cl)c1 1.8
C[C@@H]1CN([C@H](C)CO)C(=O)Cc2cc(NC(=O)Nc3cccc4ccccc34)ccc2O[C@@H]1CN(C)CC1CCCCC1 -1.3
C[C@H]1CCCCO[C@@H](CN(C)S(=O)(=O)c2cn(C)cn2)[C@@H](C)CN([C@@H](C)CO)C(=O)c2cc(NC(=O)Nc3ccc(F)cc3)ccc2O1 0.3
C[C@H](CO)N1C[C@H](C)[C@@H](CN(C)Cc2ccc(Cl)c(Cl)c2)Oc2ccc(NS(=O)(=O)c3ccc(Cl)cc3)cc2CC1=O 0.3
O=C(CCCCCCC(=O)Nc1ccccc1O)N/N=C/C=C/c1ccccc1 1.0
C[C@@H]1CCCCO[C@@H](CN(C)Cc2ccc(C(F)(F)F)cc2)[C@@H](C)CN([C@H](C)CO)C(=O)c2cc(NC(=O)c3ccncc3)ccc2O1 0.6
C[C@H]1CN([C@@H](C)CO)C(=O)c2cccc(NS(=O)(=O)c3cccs3)c2O[C@@H]1CN(C)C(=O)Nc1ccc2c(c1)OCO2 0.6
COc1ccc(S(=O)(=O)Nc2ccc3c(c2)C(=O)N([C@@H](C)CO)C[C@H](C)[C@@H](CN(C)S(=O)(=O)c2ccccc2)O3)cc1 0.6
C[C@H]1CN([C@@H](C)CO)C(=O)c2cc(NC(=O)Cc3ccccc3)ccc2O[C@@H]1CN(C)Cc1ccccc1 0.4
C[C@@H]1CN([C@H](C)CO)C(=O)c2cc(NC(=O)Nc3ccc4c(c3)OCO4)ccc2O[C@@H](C)CCCCO[C@H]1CN(C)S(=O)(=O)c1ccc(Cl)cc1 -1.0
C[C@H]1CN([C@@H](C)CO)C(=O)c2cccc(NS(=O)(=O)c3cccs3)c2O[C@H]1CN(C)C(=O)NC1CCCCC1 -1.2
CNC[C@@H]1Oc2c(NS(=O)(=O)c3cn(C)cn3)cccc2C(=O)N([C@@H](C)CO)C[C@H]1C -0.4
CNC[C@H]1OCCCC[C@H](C)Oc2ccc(NS(=O)(=O)c3ccccc3)cc2C(=O)N([C@@H](C)CO)C[C@@H]1C -0.5
C[C@@H]1CN([C@@H](C)CO)C(=O)Cc2cc(NC(=O)Cc3cn(C)c4ccccc34)ccc2O[C@H]1CN(C)CC1CC1 0.5
Cc1noc(C)c1NC(=O)Nc1ccc2c(c1)CC(=O)N([C@H](C)CO)C[C@H](C)[C@@H](CN(C)C(=O)Nc1cccc3ccccc13)O2 0.6
C[C@@H]1CN([C@H](C)CO)C(=O)c2cccc(NC(=O)c3ccc(-c4nccs4)cc3)c2O[C@H]1CN(C)C(=O)Nc1ccccc1 0.0
COc1ccc(NC(=O)N(C)C[C@H]2Oc3c(NS(=O)(=O)c4cccs4)cccc3C(=O)N([C@@H](C)CO)C[C@H]2C)cc1 -0.6
C[C@@H]1CCCCO[C@@H](CN(C)C(=O)C2CCCCC2)[C@H](C)CN([C@@H](C)CO)C(=O)c2cc(NC(=O)Nc3ccc(C(F)(F)F)cc3)ccc2O1 -0.2
C[C@@H]1CN([C@@H](C)CO)C(=O)c2cc(NC(=O)CCCN(C)C)ccc2O[C@@H]1CN(C)C(=O)Nc1ccc2c(c1)OCO2 -0.2
C[C@H]1CCCCO[C@H](CN(C)C(=O)Nc2ccc3c(c2)OCO3)[C@@H](C)CN([C@@H](C)CO)C(=O)c2cc(NC(=O)Nc3ccccc3)ccc2O1 0.1
C[C@@H]1CN([C@@H](C)CO)C(=O)c2cc(NC(=O)Nc3ccc(F)cc3)ccc2O[C@@H](C)CCCCO[C@@H]1CN(C)S(=O)(=O)c1ccccc1 0.3
Cc1noc(C)c1NC(=O)N(C)C[C@H]1Oc2ccc(NC(=O)Cn3cnnn3)cc2C(=O)N([C@H](C)CO)C[C@@H]1C -1.0
COc1ccc(S(=O)(=O)Nc2ccc3c(c2)CC(=O)N([C@H](C)CO)C[C@H](C)[C@H](CN(C)C(=O)Nc2ccc(F)cc2)O3)cc1 0.5

3 entries already listed, arranged by count of non-hydrogen atoms, falling.
SMILES A1_apoptosis_2
C[C@@H]1CCCCO[C@@H](CN(C)C(=O)C2CCCCC2)[C@H](C)CN([C@@H](C)CO)C(=O)c2cc(NC(=O)Nc3ccc(C(F)(F)F)cc3)ccc2O1 -0.2
C[C@@H]1CN([C@H](C)CO)C(=O)c2cccc(NC(=O)c3ccc(-c4nccs4)cc3)c2O[C@H]1CN(C)C(=O)Nc1ccccc1 0.0
C[C@@H]1CN([C@@H](C)CO)C(=O)Cc2cc(NC(=O)Cc3cn(C)c4ccccc34)ccc2O[C@H]1CN(C)CC1CC1 0.5

Following part:
SMILES A1_apoptosis_2
C[C@H]1CN([C@@H](C)CO)C(=O)Cc2cc(NC(=O)CCN3CCOCC3)ccc2O[C@@H]1CN(C)S(=O)(=O)c1ccccc1 0.8
C=CCOC(=O)[C@H]1[C@@H]2C(=O)O[C@@H](c3ccccc3)[C@@H](c3ccccc3)N2[C@@H](c2ccc(OCCOC(=O)[C@@H]3C[C@@H]4C(=O)N5CCC[C@H]5C(=O)N4[C@@H]3c3cccc(OCCO)c3)cc2)[C@]12C(=O)Nc1ccccc12 0.3
C[C@H]1C=C(C(=O)N2CCN(Cc3ccc4c(c3)OCO4)CC2)O[C@@H](OCCCCO)C1 0.2
COc1ccc(S(=O)(=O)N(C)C[C@H]2OCCCC[C@H](C)Oc3ccc(NC(=O)Nc4ccccc4)cc3C(=O)N([C@@H](C)CO)C[C@@H]2C)cc1 1.7
C[C@H]1CN([C@@H](C)CO)C(=O)c2cc(NC(=O)C3CC3)ccc2O[C@H]1CN(C)Cc1ccc(-c2ccccc2)cc1 -1.4
C[C@@H]1CN([C@H](C)CO)C(=O)Cc2cc(NC(=O)Cc3ccccc3)ccc2O[C@H]1CN(C)Cc1ccccc1 0.3
Cc1noc(C)c1NC(=O)Nc1ccc2c(c1)CC(=O)N([C@@H](C)CO)C[C@H](C)[C@@H](CN(C)CC1CCCCC1)O2 -1.1
COc1ccc(S(=O)(=O)Nc2cccc3c2O[C@@H](CN(C)Cc2ccc(C(=O)O)cc2)[C@@H](C)CN([C@H](C)CO)C3=O)cc1 -1.1
CC(C)NC(=O)Nc1ccc2c(c1)C(=O)N([C@H](C)CO)C[C@H](C)[C@H](CN(C)S(=O)(=O)c1cccs1)O2 -1.3
Cc1ccc(S(=O)(=O)N(C)C[C@@H]2Oc3ccc(NS(=O)(=O)c4c(C)noc4C)cc3CC(=O)N([C@@H](C)CO)C[C@H]2C)cc1 0.5

As a short view, some entries already given:
SMILES A1_apoptosis_2
C=CCOC(=O)[C@H]1[C@@H]2C(=O)O[C@@H](c3ccccc3)[C@@H](c3ccccc3)N2[C@@H](c2ccc(OCCOC(=O)[C@@H]3C[C@@H]4C(=O)N5CCC[C@H]5C(=O)N4[C@@H]3c3cccc(OCCO)c3)cc2)[C@]12C(=O)Nc1ccccc12 0.3
C[C@H]1C=C(C(=O)N2CCN(Cc3ccc4c(c3)OCO4)CC2)O[C@@H](OCCCCO)C1 0.2
COc1ccc(S(=O)(=O)N(C)C[C@H]2OCCCC[C@H](C)Oc3ccc(NC(=O)Nc4ccccc4)cc3C(=O)N([C@@H](C)CO)C[C@@H]2C)cc1 1.7
C[C@H]1CN([C@@H](C)CO)C(=O)c2cc(NC(=O)C3CC3)ccc2O[C@H]1CN(C)Cc1ccc(-c2ccccc2)cc1 -1.4

(next part)
SMILES A1_apoptosis_2
O=C(O)[C@@]1(CCS(=O)(=O)c2ccccc2)COC(c2ccc(OCCCO)cc2)=N1 0.3
C[C@@H]1CN([C@@H](C)CO)C(=O)c2cc(NS(=O)(=O)c3cn(C)cn3)ccc2O[C@@H]1CN(C)C(=O)Nc1ccc(C(F)(F)F)cc1 -0.3
COc1ccc(NC(=O)N(C)C[C@H]2Oc3ccc(NC(=O)NC(C)C)cc3CC(=O)N([C@H](C)CO)C[C@H]2C)cc1 0.5
C[C@@H]1CN([C@H](C)CO)C(=O)c2cc(NC(=O)c3ccncc3)ccc2O[C@@H](C)CCCCO[C@H]1CN(C)S(=O)(=O)c1ccc(Cl)cc1 0.3
C[C@@H]1CCCCO[C@H](CN(C)Cc2ccc3c(c2)OCO3)[C@H](C)CN([C@@H](C)CO)C(=O)c2cc(N(C)C)ccc2O1 0.1
COc1ccc(S(=O)(=O)N(C)C[C@H]2Oc3ccc(NC(=O)Nc4ccc(C(F)(F)F)cc4)cc3CC(=O)N([C@@H](C)CO)C[C@@H]2C)cc1 0.3
COC(=O)C(CC#Cc1ccc2c(c1)[C@]1(C(=O)N2)[C@H](C(=O)N2CCCCCCC2)[C@H]2C(=O)O[C@H](c3ccccc3)[C@H](c3ccccc3)N2[C@@H]1c1ccc(O)cc1)C(=O)OC -0.3
C[C@H](CO)N1C[C@H](C)[C@@H](CN(C)CC2CCCCC2)Oc2ccc(NC(=O)NC3CCCCC3)cc2CC1=O -1.0
Cc1noc(C)c1S(=O)(=O)Nc1cccc2c1O[C@@H](CN(C)Cc1ccc(Cl)c(Cl)c1)[C@@H](C)CN([C@H](C)CO)C2=O 0.1
O=C(NO)c1cccc(C(=O)N/N=C/c2cc(O)ccc2O)c1 -1.4
C[C@H](CO)N1C[C@H](C)[C@H](CN(C)Cc2ccc(C(=O)O)cc2)Oc2ccc(NC(=O)CCCN(C)C)cc2C1=O -0.8
C[C@H](CO)N1C[C@H](C)[C@H](CN(C)C)Oc2ccc(N(C)C)cc2C1=O 1.5

Some of the compounds tested. The share of hits here may be higher or lower than overall.
